# Rango-impB inh: prevents formation of the Rango-importin beta complex; 0.031% of 340,000 active; Potency, µM (titrated, usually from 92.2 µM), inactives show at the top dose inhibition of complex formation; Rango CFP/YFP FRET sensor + importin beta, 45 min; active = rising FRET ratio curve, often small or poorly fitted; inconclusive = mostly compound fluorescence or quenching in the first reads; inactive = flat curves in all reads;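 further: potency means the concentration at half of the fitted maximal effect; 0% = DMSO wells and 100% = buffer wells lacking importin beta; nearly all actives have a fitted effect of over 15% in size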
# Target sequence (Q14974 whole entry, looked up): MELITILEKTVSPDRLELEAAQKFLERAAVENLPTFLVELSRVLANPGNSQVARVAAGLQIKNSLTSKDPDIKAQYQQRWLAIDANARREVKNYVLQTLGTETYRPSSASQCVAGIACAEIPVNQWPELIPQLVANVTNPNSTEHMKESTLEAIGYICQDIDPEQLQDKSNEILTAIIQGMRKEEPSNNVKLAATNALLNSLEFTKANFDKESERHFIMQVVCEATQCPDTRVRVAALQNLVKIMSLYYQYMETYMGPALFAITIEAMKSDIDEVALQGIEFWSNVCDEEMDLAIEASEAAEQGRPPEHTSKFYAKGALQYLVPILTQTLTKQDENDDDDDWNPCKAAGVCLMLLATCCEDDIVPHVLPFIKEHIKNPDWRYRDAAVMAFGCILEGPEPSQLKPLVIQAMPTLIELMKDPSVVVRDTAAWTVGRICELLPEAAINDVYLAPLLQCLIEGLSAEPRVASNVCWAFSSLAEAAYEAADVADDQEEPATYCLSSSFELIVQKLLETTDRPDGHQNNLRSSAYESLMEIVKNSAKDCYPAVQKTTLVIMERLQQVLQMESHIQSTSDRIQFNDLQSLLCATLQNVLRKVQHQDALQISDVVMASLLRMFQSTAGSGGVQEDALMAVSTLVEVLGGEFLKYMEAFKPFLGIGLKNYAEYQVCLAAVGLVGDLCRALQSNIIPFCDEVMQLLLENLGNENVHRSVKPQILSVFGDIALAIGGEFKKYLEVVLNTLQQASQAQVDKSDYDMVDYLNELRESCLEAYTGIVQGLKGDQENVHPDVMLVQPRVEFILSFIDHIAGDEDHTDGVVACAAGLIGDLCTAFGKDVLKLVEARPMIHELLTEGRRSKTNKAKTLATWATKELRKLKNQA
#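 FRET biosensor Rango (snurportin 1 IBB between N-terminal EYFP and C-terminal Cerulean), 50 nM in PBS/1 mM DTT/0.02% Tween-20/0.1% BSA, preincubated 5 min RT with compound; 0.125 microM importin beta added, 45 min RT, CFP/YFP FRET ratio read.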
# GLA inh pH 4.5: alpha-galactosidase A (human) inhibition, pH 4.5 | activity change, negative = inhibition, % at 105 µM | purified enzyme, 4-MU-alpha-Gal fluorescence, pH 4.5 | 230,000 tested, under 10 active; inconclusive = small, poorly fitted or top-dose-only inhibition, or a rising curve; inactive = flat fitted curve, though single readings scatter; no compound was filed as active;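 further: 0% = full activity with enzyme and -100% = basal without enzyme; dose as in the result columns while the protocol names 77 µM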
# Rango release inh: inhibition of RanGTP-driven Rango-importin beta dissociation; 0.071% of 340,000 active; Biochemical FRET Rango-importin beta, RanGTP-induced dissociation; Potency, µM (highest dose often 46.1 µM), for inactives: at the top dose activity change, negative = inhibition; AID 540253; active means falling FRET ratio curve, often poorly fitted, with flat reads before Ran was added; inconclusive means other falling curves, or compound fluorescence or quenching; inactive means flat or rising ratio curve;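 further: potency means the concentration at half of the fitted maximal effect; % of control where 0% means no effect; nearly all actives have a fitted effect of over 45% in size; -100% = wells without RanGTP and RCC1; the record marks most hits as doubtful in a second field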
#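 Rango FRET biosensor (snurportin-1 IBB flanked by N-terminal EYFP and C-terminal CFP10) at 0.1 uM, with 0.25 uM importin beta in PBS, 1mM DTT, 0.02% Tween-20, 0.1% BSA. 0.6 uM Ran, 2mM GTP and 0.2 uM RCC1 were then added for 45 min at room temperature. Inhibition read as loss of FRET rise.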
# miR-21 FLuc: raises the signal of a miR-21 reporter; HeLa miR-21 FLuc reporter, luciferase, 48 h; AID 2288; Potency, µM (top dose mostly 38.3 µM), for the others: at the highest dose reporter change, positive = more light; 340,000 tested, under 10 active; active = well fitted rising curve with a large enough effect; inconclusive = small, poorly fitted or top-dose-only effect; inactive = no such curve, though single readings can be large or run the other way;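 further: % of control where 0% means no effect; miR-21 action dims this reporter so a rising signal means less miR-21 action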
#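 Using DMEM plus 10% FBS, HeLa miR-21-FLuc cells are incubated with test compounds (final up to about 40uM) for 48 hours; firefly luciferase signal is then imaged following reagent-mediated lysis.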
# * marks the source's active call; other numbers are inactive results; u = inconclusive; x = not tested or not shown; & = joins results of further samples; [ ] = dose if it differs, or a comment. Only part of the results is shown; count on the stated rates, not on these rows.
SMILES,Rango-impB inh,GLA inh pH 4.5,Rango release inh,miR-21 FLuc
CCOC(=O)CC(=O)CSc1nc2ccccc2c(=O)n1-c1ccc(C(=O)NCCOC)cc1,u,1,-24%,-3%&-9%
COc1cccc(NC(=O)CNCc2ccccc2)c1,-0.2%,x,6%,-46%
COc1ccc(C2N(c3ccccc3)C(=S)N3CCCN23)cc1 (centres undefined),u,2,-19%,-9%
COc1cc(C#Cc2c(-c3cncn3C)n(C)c3ccc(-c4ccc(OC)nc4)cc23)cc(OC)c1,-1.8%,x,4%,x
CC(=O)N1CCC2(CC1)C(C#N)=C(N)Oc1c2sc2nc(C)cc(C)c12,-3.6%,-5,-11%,-11%
CCn1cc(C(=O)NCc2ccccn2)c(=O)c2cc(S(=O)(=O)N3CCCCC3)ccc21,x,4,x,0%
CSc1cccc(NC(=O)c2ccc(NC3=NC4CS(=O)(=O)CC4S3)cc2)c1 (centres undefined),0.3%,x,-5%,-7%
COc1ccccc1CNC(=O)C(=O)NCC1OCCCN1S(=O)(=O)c1cccs1 (centres undefined),-3.2%,x,-7%,-8%
O=C1Nc2ccccc2SC1c1ccccc1Cl (centres undefined),-2.3%,x,-21%,x
COc1cc(CNc2ccc(N3CCN(C(C)=O)CC3)cc2)ccc1OCc1ccccc1,3.0%,-16,0%,-15%
O=C(c1ccco1)N1CCN(S(=O)(=O)N2CCOCC2)CC1,2.5%,7,0%,0%
O=C(CSc1nnc(NC(=O)c2ccccc2[N+](=O)[O-])s1)NCC1CCCO1 (centres undefined),-1.6%,x,-16%,1%
CCCCn1c(N)c(N(CCOC)C(=O)c2cc(-c3ccncc3)nc3ccccc23)c(=O)[nH]c1=O,-4.0%,x,8%,-13%
O=C1/C(=C/c2cccnc2)SC(=S)N1c1ccccc1,-1.1%,5,5%,-5%
CCCSc1cc(N2CCOCC2)nc(-c2ccccc2Cl)n1,0.6%,4,11%,-3%
N#CCOc1ccccc1P(=O)(c1ccccc1)c1ccccc1,-0.2%,x,-8%,-1%
N=c1c(C(=O)NC2CCCCC2)cc2c(=O)n3ccccc3nc2n1Cc1ccccc1,u,x,u,-1%
CNC(=O)N(O)C1N(/N=C/c2ccc(C)cc2)C(=S)SC1(C)C (centres undefined),2.1%,x,-1%,-6%
CCC(C)[C@H](NC(=O)NCc1cccs1)C(=O)O (some centres undefined),3.8%,-17,-13%,-2%
CCCCSC(=O)Nc1ccccc1,0.1%,0,-1%,-20%
CCc1nnc(SCC(=O)Nc2ccc3c(c2)OCO3)n1CC,-0.8%,x,-2%,-1%
COc1ccc(C)cc1NC(=O)c1ccc2c(=O)n3c(nc2c1)CCCCC3,-0.4%,x,2%,-3%&1%
Cc1[nH]n(-c2nc(-c3ccccc3)cc(=O)[nH]2)c(=O)c1CCO,1.1%,4,-13%,2%
CCN(CC)CCCn1c(SCC(=O)NCC2CCCO2)nc2ccccc2c1=O (centres undefined),-2.9%,x,8%,x
O=C(N=Nc1c(O)[nH]c2ccc(Br)cc12)c1ccccc1-n1cccc1,7.5%,-3,-8%,20%

# Reprinted from the part before: 2 compounds, followed by the next part.
SMILES,Rango-impB inh,GLA inh pH 4.5,Rango release inh,miR-21 FLuc
CCN(CC)CCCn1c(SCC(=O)NCC2CCCO2)nc2ccccc2c1=O (centres undefined),-2.9%,x,8%,x
O=C(N=Nc1c(O)[nH]c2ccc(Br)cc12)c1ccccc1-n1cccc1,7.5%,-3,-8%,20%
C#Cc1ccc([C@@H]2C=C(C(=O)NC3CC3)O[C@H](OCC)[C@H]2CCCO)cc1,0.3%,-3,6%,9%
O=C(NCCc1ccccc1)C(c1cccs1)N(C(=O)CCl)c1ccc(Cl)cc1 (centres undefined),6.3%,-22,2%,u
O=C(NCc1cccnc1)c1cccc(S(=O)(=O)Nc2ccc(F)cc2)c1,-1.4%,x,7%,x
CCOC(=O)c1c(C)[nH]c(C(=O)OCC(=O)Nc2cc(C)nn2-c2ccccc2)c1C,0.5%,x,2%,x
C=CCNC(=S)Nc1ccc2cn[nH]c2c1,-2.6%,3,2%,13%
COc1ccccc1NS(=O)(=O)c1cccc(C(=O)N/N=C(\C)c2ccc(-n3ccnc3)cc2)c1,-3.8%,2,-23%,0%
O=C(NCC(=O)N(c1ccccc1)C(C(=O)NC1CCCCC1)c1cccnc1)c1cccs1 (centres undefined),2.7%,10,-23%,0%
Cc1cc(S(=O)(=O)N(Cc2ccc(F)cc2)CC2CCCO2)ccc1-n1cnnn1 (centres undefined),-3.4%,-3,-17%,-1%
O=C(OCC(=O)N1CCCC1)c1ccco1,0.7%,4,1%,-9%
CO/C([O-])=N/c1c[n+](-c2ccc(C)cc2)no1,-2.6%,-2,-4%,-31%
CCCOc1ccc(Oc2nc(-c3ccncc3)nc3ccccc23)cc1,0.5%,2,13%,4%
Cc1cccc(NC(=O)CN(C)S(=O)(=O)c2cccs2)c1,0.6%,-5,0%,-23%
CCCC(=O)N1CC(=O)Nc2ccc(C)cc2C1c1ccc(F)cc1 (centres undefined),-1.0%,x,-11%,-5%
COc1cccc(OCC(O)CN2CCN(CCO)CC2)c1 (centres undefined),-4.0%,3,0%,-2%
CCCOc1ccc(C(=O)CCC(=O)OCC(=O)N(CC)c2c(N)n(Cc3ccccc3)c(=O)[nH]c2=O)cc1,-0.5%,x,-5%,x
CCOC(=O)c1c(NC(=O)Cc2cccs2)sc(C)c1C,0.9%,-3,-9%,-12%
CCN1CCN(Cc2ccc(NC(=O)c3ccc(C)c(NC(=O)C[C@@H]4NC(=O)[C@H](Cc5ccccc5)NC4=O)c3)cc2C(F)(F)F)CC1,0.3%,-7,0%,0%
O=C(NCc1ccccc1)C1CCCN1S(=O)(=O)c1ccc(F)cc1 (centres undefined),0.6%,x,3%,-1%
COC(=O)C1=C(C)NC(=O)NC1c1cc(Cl)ccc1OC (centres undefined),-0.1%,-2,7%,-7%
O=C(Nc1cccc(F)c1)Nc1c[nH]c(=O)[nH]c1=O,-0.4%,x,-2%,2%
COc1ccc(CN2CCNC(=O)C2CC(=O)NCCSc2nccn2C)c(OC)c1 (centres undefined),-0.1%,3,5%,-2%
CN(C)CCN(Cc1cc2cc3c(cc2[nH]c1=O)OCCO3)C(=S)NCC1CCCO1 (centres undefined),2.5%,7,-15%,3%
COc1cc2cc(CN(Cc3cccs3)C(=S)Nc3cccc(C)c3)c(=O)[nH]c2cc1OC,x,1,x,10%
Cc1[nH]c(C)c(S(=O)(=O)Nc2cccc(Cl)c2C)c1C(=O)N1CCCCC1,2.6%,x,-11%,2%
COC(=O)C1=C(C)NC(C)=C(C(=O)OC)C1c1ccc(N(C)C)cc1,-0.4%,-1,0%,-6%

# Profiles as entered above.
# CCN1CCN(Cc2ccc(NC(=O)c3ccc(C)c(NC(=O)C[C@@H]4NC(=O)[C@H](Cc5ccccc5)NC4=O)c3)cc2C(F)(F)F)CC1 across the screens: Rango-impB inh = 0.3%; GLA inh pH 4.5 = -7; Rango release inh = 0%; miR-21 FLuc = 0%
# O=C(OCC(=O)N1CCCC1)c1ccco1 across the screens: Rango-impB inh = 0.7%; GLA inh pH 4.5 = 4; Rango release inh = 1%; miR-21 FLuc = -9%

# The list goes on:
SMILES,Rango-impB inh,GLA inh pH 4.5,Rango release inh,miR-21 FLuc
Cc1ccc(C(=O)NNC(=O)CCN2C(=O)C3CCCCC3C2=O)cc1 (centres undefined),-6.8%,-2,-17%,-5%
O=C(O)c1ccc(CN(Cc2ccccc2)S(=O)(=O)c2ccc(Cl)cc2)cc1,-2.2%,x,-3%,-1%
CCCCN(CC)Cc1ccc(CNC(=S)Nc2c(C)cc(C)cc2C)o1,-2.3%,-18[21.1 µM],-4%,0%
O=c1c2[nH]c3ccccc3c2ncn1CCC1=CCCCC1,-0.8%,-1,1%,-34%
Cc1ccc(S(=O)(=O)N(C)C(=O)NC(=O)NS(=O)(=O)c2ccccc2)cc1,-1.2%,15,-2%,1%
CC(NC(=O)c1ccccc1)c1nnc(SCC(=O)NC2CCCC2)n1C (centres undefined),0.8%,x,9%,5%
COC(=O)CSc1nnc(CSc2nc(C)cc(C)n2)n1Cc1ccco1,5.2%,4,2%,-5%
CCC(c1nnnn1Cc1ccco1)N(CCc1ccccc1)Cc1cc2ccc(OC)cc2[nH]c1=O (centres undefined),u,-8,u,0%
COc1ccc(CCNc2nc3ccccc3n3nnnc23)cc1OC,u,-2,u,-19%
CCc1cc2cc3c(cc2nc1SCC(=O)Nc1nnc(C)s1)OCCO3,-3.0%,0,8%,0%
O=C1Nc2ccccc2C(O)(C(=O)NCc2ccc3c(c2)OCO3)N1c1ccccc1 (centres undefined),0.2%,-12,-4%,-5%
CCCCN(CCCC)C(=O)C1(P(=O)(c2ccccc2)c2ccccc2)CCC1,-2.4%,-6,-7%,11%
COc1cccc(/C=c2/s/c(=C(\C#N)C(=O)N3CCOCC3)n(-c3ccccc3)c2=O)c1,u,0,-12%,-8%
COc1cc(C(=O)NCC(=O)N/N=C(C)\C=C\c2ccccc2)cc(OC)c1OC,0.5%,6,15%,-1%
O=C(/C=C/c1ccccc1)N1CCN(CC(O)COc2ccccc2)CC1 (centres undefined),-6.1%,-1,0%,-6%
c1ccc(-n2ncc3c2ncn2c(C4CCCCC4)nnc32)cc1,x,-1,x,-7%
CCN1CCN(C(c2cc3cc4c(cc3[nH]c2=O)OCO4)c2nnnn2C(C)(C)CC)CC1 (centres undefined),-6.0%,u,-17%,2%
CN1CCN(S(=O)(=O)c2ccc(Oc3ccc(F)c(Cl)c3)nc2)CC1,-2.2%,3,-4%,5%
CC1(C)CC(=O)C(C=NCCCN2CCOCC2)=C(O)C1,2.5%,-2,20%,-4%
CCOC(=O)/C(C#N)=C\C1=C(N2CCCC2)CC(C)(CC)OC1 (centres undefined),-2.0%,-2,-27%,-10%
Cc1cnc(NC(=O)COc2ccccc2)s1,-0.4%,4,1%,-14%
COc1ccc(NC(=O)CCCC2CCCCC2)cc1S(=O)(=O)N1CCCCC1,-0.3%,u,-13%,-2%
O=C(Nc1ccccc1)OCCNC(=O)c1ccccc1,-1.2%,3,-11%,3%
Cc1ccc2nc(C(C)O)[nH]c2c1 (centres undefined),4.1%,6,6%,-6%
CCCC(C)C(=O)OCC(=O)NCc1ccc(OC)c(OC)c1 (centres undefined),1.1%,4,2%,-1%
# (next part)
SMILES,Rango-impB inh,GLA inh pH 4.5,Rango release inh,miR-21 FLuc
COc1ccccc1CNc1nc(C)c(C(=O)N(C)C)s1,-0.7%,x,0%,-4%
COc1cc(C(=O)NC2=NCCS2)cc(OC)c1OC,1.2%,2,15%,1%
O=C(C[n+]1cc(-c2ccc(F)cc2)n2c1CCC2)c1cccs1,-0.3%,-5,-6%,-24%
Cn1c(NC(=O)c2cccs2)cc(=O)n(C)c1=O,-1.2%,3,13%,-6%
O=C(CCC(=O)c1ccccc1)NC1CCCN(Cc2ccccc2F)C1 (centres undefined),-0.6%,x,5%,-1%
Cc1ccc(C(=O)NCCc2nnc(SCC(=O)Nc3nc(-c4ccccc4)cs3)n2C)cc1,-3.6%,5,8%,-15%
COc1ccc(CC(C#N)(CO)c2nc3ccccc3[nH]2)cc1 (centres undefined),-2.5%,-2,u,11%
CC1(C)CC(=O)c2c(O)cc(OCC(=O)N3CCN(c4ccccc4)CC3)cc2O1,1.0%,x,2%,-7%
CC(C)c1ccc(N(CCc2ccccn2)C(=O)C(C)(C)C)cc1,2.7%,x,9%,x
O=C(O)c1cc([N+](=O)[O-])ccc1NCc1ccccc1Cl,5.8%,-3,0%,-2%
Cc1cccc(NC(=O)NNC(=O)COc2ccc3ccccc3c2)c1,-0.9%,x,1%,3%
COc1ccc(C2C(C(=O)NC(C)C)c3ccccc3C(=O)N2C)cc1OC (centres undefined),-0.4%,5,-3%,-3%
COc1ccc(CNC(=O)Cn2cncn2)cc1OC,0.2%,-8,-1%,-1%
O=[N+]([O-])c1cccc(-n2cc3ccc([N+](=O)[O-])cc3n2)c1,0.2%,x,2%,x
COc1ccc(-n2cnc3scc(-c4ccc(OC)c(OC)c4)c3c2=O)cc1,-0.2%,-13,0%,-8%

# Assay outcomes: PubChem, National Center for Advancing Translational Sciences (NCATS)
